HIV TAR-Tat: TAR RNA-Tat peptide displacers, HIV-1, primary screen, biochemical, FRET, FAM/TAMRA-labeled Tat; AID 1259389, 2018; z-score (no concentration beside the values); hit rate 0.6% among 100,000; HIV-1 TAR RNA, Tat peptide displacement FRET; hits give high values;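 also: score is relative to mean and SD of negative controls; some compounds called inactive have numbers as strong as hits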
CDC25B-CDK2 inh: primary biochemical HTRF screen for blockers of M-phase inducer phosphatase 2 binding to CDK2/cyclin A | z-score (test concentration not listed) | P30305+P24941 | HTRF CDC25B-CDK2/CyclinA binding, anti-His/anti-Flag; hits give high values | hit rate 0.72% among 94,000;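 also: score is relative to mean and SD of negative controls; strong numbers were not always called active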
Starred values were filed as active, the others as inactive; . = no result given; & = joins results of further samples.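 The calls were made as follows: active = z-score from 3 up in half or more of its runs; inactive = the rest.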 Hits appear at their usual frequency; about 0.97% have a hit in one of these screens.

SMILES	HIV TAR-Tat	CDC25B-CDK2 inh
O=C1NCCN1CCNS(=O)(=O)c1ccc(N2C(=O)CCC2=O)cc1	.	-0.86
O=C(CCS(=O)(=O)c1ccc2c(c1)CCN2C(=O)C1CC1)Nc1cccc2c1CCCC2	0.37	.
Cc1nn(CCCC(=O)NCCC2=CCCCC2)c(=O)c2c1sc1ccccc12	2.3	-2.28
O=C(CCc1nnc2ccc(N3CCCCC3)nn12)N1CCCC1	0.68	.
N#Cc1ccc(-c2csc(COc3ccccc3Cl)n2)cc1	.	-0.98
O=C(Nc1cccc2c1CCCC2)N1CCOc2ccccc21	1.71	.
CC1CCc2sc3ncnc(NCCN4CCOCC4)c3c2C1 (stereo not drawn)	.	0.36
COc1ccccc1OCC(O)Cn1c[n+](C)c2cc(C)c(C)cc21 (stereo not drawn)	0.62	-2.92
CCCCCSc1nc2c(cnn2-c2ccc(F)cc2)c(=O)[nH]1	2.25	0.27
O=C(Nc1ncc2c(n1)CC(c1ccco1)CC2=O)c1ccccc1 (stereo not drawn)	-0.52	1.82
NC(=O)CN1C(=O)C(O)(CC(=O)c2cccs2)c2ccccc21 (stereo not drawn)	-0.03	-1.16
COc1cc2ncc(S(=O)(=O)c3ccccc3)c(N3CCC(C)CC3)c2cc1OC	1.04	1.55
COc1cccc(-c2nc(SCc3cc(=O)c4cc(F)ccc4[nH]3)n[nH]2)c1	-1.69	.
COc1ccc(NC2c3ncccc3C(=O)N2Cc2ccco2)c(OC)c1 (stereo not drawn)	0.83	.
CCOC(=O)c1c(C)oc2ncnc(N(CCO)c3ccccc3)c12	0.53	-0.86
COc1cc(OC)c(C(F)(F)F)cc1NCN1C(=O)CCC1=O	.	4.18
Cn1c(=O)c2c(ncn2Cc2cccc(C(F)(F)F)c2)n(C)c1=O	.	-0.03
C#CCn1c(C(O)CCC)nc2ccccc21 (stereo not drawn)	1.55	-0.95
Cc1cc2n(n1)CCCN2C(=O)Nc1ccccc1Br	2.25	.
Clc1ccc(OCc2nc3c4cnn(Cc5ccccc5)c4ncn3n2)cc1	-1.41	-0.69
O=C(NC1CCN(Cc2ccccc2)CC1)NC1COc2ccccc2C1 (stereo not drawn)	0.68	.
O=c1[nH]nc(N2CCSCC2)[nH]1	.	-2.15
CC(=O)Nc1c2n(c3ccc(F)cc13)CC(C)(C(=O)NC1CCCC1)N(Cc1ccco1)C2=O (stereo not drawn)	0.84	.
O=S(=O)(NC1CCCc2ccccc21)c1cc(-c2noc(C3CC3)n2)cs1 (stereo not drawn)	1.67	.
CCOc1ccc(S(=O)(=O)Nc2ccc3c(c2)N(S(=O)(=O)c2ccccc2)CCC3)cc1	0.39	.
O=C(NCc1noc2ccccc12)N1CCN(c2ccc(F)cc2)CC1	0.96	.
CC1(C)OC(=O)C=C[C@@]2(C)C1C[C@@H](O)[C@]1(C)C2CC[C@@]2(C)[C@H](c3ccoc3)OC(=O)C3OC321 (stereo partly drawn)	2.32	.
CCOC(=O)c1c(NC(=O)CC)sc2c1CCCC2	2.51	-1.86
c1ccc(-c2nnc3c4cnn(-c5ccccc5)c4ncn23)cc1	-1.13	0.85
Cn1c(=O)c2c(SCC(=O)N3CCN(c4ccccc4)CC3)nc(C3CCCC3)nc2n(C)c1=O	0.72	.
COc1ccc(OC)c(C(=O)CN2C3=NCCCN3c3ccccc32)c1	.	-0.55
CCOC(=O)C1CCN(S(=O)(=O)c2ccc3c(c2)oc(=O)n3C)CC1	.	-1.22
CCOC(=O)c1ccc2c(c1)sc1nc(-c3ccc(C)cc3C)cn12	-0.19	-0.44
COc1ccc(OCc2nnc(-c3ccccc3Cl)o2)cc1	-0.73	0.78
O=c1ccc(-c2ccc(S(=O)(=O)N3CC=C(c4ccccc4)CC3)o2)n[nH]1	-0.21	.
Cc1cc(C)cc(NC(=O)NCCc2csc3c2CCCC3)c1	-0.22	.

Look-ups from the results shown:
Under HIV TAR-Tat, `O=c1ccc(-c2ccc(S(=O)(=O)N3CC=C(c4ccccc4)CC3)o2)n[nH]1` has -0.21
Under CDC25B-CDK2 inh, `COc1ccc(OC)c(C(=O)CN2C3=NCCCN3c3ccccc32)c1` has -0.55

(next part)
SMILES	HIV TAR-Tat	CDC25B-CDK2 inh
Cc1cccc(Cn2c(Sc3nnc(C)s3)nc3c2c(=O)[nH]c(=O)n3C)c1	-0.3	-1.74
CC(=O)c1ccc(N2CCN(CC(=O)Nc3cccc(C#N)c3)CC2)cc1	.	-2.28
Cc1nn(C(C)C(=O)Nc2cccc(F)c2)c(=O)c2nn(-c3ccccc3)c(C)c12 (stereo not drawn)	0.87	.
O=c1[nH]ccn(-c2cc(F)cc(F)c2)c1=O	0.92	-1.62
CC(C)C(=O)N1CCc2cc3ccccc3nc21	1.31	-0.02
Cc1ccc(S(=O)(=O)Nc2ncn(Cc3ccc(Cl)cc3)n2)c(C)c1	2.38	-1.45
CCc1nc2ccccc2n1CC(O)COc1cc(C)ccc1C (stereo not drawn)	0.47	0.75
COCCNS(=O)(=O)c1c(C)nc2sc(C)cn2c1=O	-0.87	.
CN(C)CCCNc1nc(-c2cccnc2)nc2ccccc12	0.51	0.32
CCOC(=O)C1=C(C)N2CCN=C2S1	.	-1.08&-0.01
Cc1ccccc1OC1CCS(=O)(=O)C1 (stereo not drawn)	-0.13	0.19
CCCCCCn1c(CCNC(=O)C(C)(C)C)nc2ccccc21	2.55	-1.75
O=C(Nc1nc2nc3c(c(=O)n2[nH]1)CCC3)c1ccc(Cl)cc1	0.96	-0.96
O=C(COc1ccccc1)Nc1nnc2n1CCS2	0.3	.
CCN1CCN(c2cc(C)nc3c(-c4ccc(F)cc4)c(C(F)(F)F)nn23)CC1	-0.07	-0.71
O=C(c1ccc(F)cc1)c1cn(Cc2ccccc2F)c2cc3c(cc2c1=O)OCO3	-2.62	-1.98
Cc1cc(-c2noc(COc3ccc(F)cc3)n2)c2ccccc2n1	-1.52	-1.32
COc1ccc(/C=C/C(=O)Nc2ncc(Cc3cccc(C(F)(F)F)c3)s2)cc1	.	-1.35
CCC(CC)c1nnc(NC(=O)Cc2csc(C)n2)s1	1	-0.29
CN(C)c1ccc(C2C(C(=O)c3cccs3)=C(O)C(=O)N2Cc2cccnc2)cc1 (stereo not drawn)	1.13	0.26
COc1ccc(OC)c(C2CC(c3ccccc3)n3nnnc3N2)c1 (stereo not drawn)	0.52	.
CCCCOC(=O)COc1ccc(S(=O)(=O)c2ccc(OCC(=O)OCCCC)cc2)cc1	.	-4.44
COc1cc(NC(=O)CSc2ccc(-c3ccccn3)nn2)cc(OC)c1	1.94	.
CCOCCOC(=O)C1=C(C)N(C)C(=O)NC1c1ccc(Cl)cc1 (stereo not drawn)	.	0.31
O=C(CCN1Cc2ccccc2C1)c1ccc2c(c1)OCCO2	.	-1.37
COC(=O)C1=C(C)NC2=C(C(=O)CC(C)(C)C2)C1c1cccc(OC)c1O (stereo not drawn)	0.06	-0.93
CCc1ccccc1NS(=O)(=O)c1cc(Br)cnc1N	1.67	-1.35
Cn1c(=O)oc2cc(S(=O)(=O)NCc3ccccc3Cl)ccc21	-1.05	-1.39
O=S(=O)(c1cccc2nsnc12)N1CCN(c2cc(-c3cccc(F)c3)ncn2)CC1	1.56	.
CCOC(=O)CCCn1ncn2c(cc3occc32)c1=O	-0.28	2.21
COc1ccc(OC)c(N2C(=O)COc3ccc4ccccc4c3C2C(=O)NC2CCCC2)c1 (stereo not drawn)	0.2	.
O=C1[C@H]2CSC3(C(=O)c4ccccc4C3=O)N2C(=O)[C@H]2CSC3(C(=O)c4ccccc4C3=O)N12	.	0.03
CC(N=C1NC(C)(C)Cc2ccccc21)C(=O)O (stereo not drawn)	-0.07	-1.21
Nc1cc2ncnc(N3CCCC3)c2cn1	2.63	-1.58
CCCc1nc(SCc2cc(=O)c3c(C)ccc(C)c3[nH]2)n[nH]1	-0.16	.
CCOc1ccc(C2C3=C(CCCC3=O)NC3=C2C(=O)c2ccccc23)cc1 (stereo not drawn)	-0.77	-2.13
COc1cc(OC)c2nc(C)c3c(c2c1)N(c1cccc(C(F)(F)F)c1)CC3	.	-1.9
CCOc1ccc(CNS(=O)(=O)c2c(C)nc3scc(C)n3c2=O)cc1OC	1.85	-1.92
COc1ccccc1CN1CCc2nc(N3CCN(c4ccccn4)CC3)ncc2C1	-0.15	.
CCNS(=O)(=O)c1ccc(C)c(-n2cnnn2)c1C	.	2.07
CC1(C)CC(=O)C2=C(C1)Nc1ccccc1N(CC(=O)Nc1nccs1)C2c1ccco1 (stereo not drawn)	-4.13	.
CN1C(C(=O)N2CCCC2)=CC(c2ccc3c(c2)OCO3)=NS1(=O)=O	1.93	-2.07
O=C(O)CCc1nn2c3ccccc3nc2n(-c2ccccc2)c1=O	.	-1.38
CN1CCc2c(sc(N)c2C(=O)OC(C)(C)C)C1	1.75	1.06
Cc1cc(=O)n2nc(N3CCCC3C(=O)NC3CCCC3)sc2n1 (stereo not drawn)	-0.38	-1.11
Cc1nc2ccccn2c(=O)c1Cl	.	-1.03
COc1ccc(O)c(C2=NCCNC(C(F)(F)C(F)F)=C2)c1	2.45	-1.82
Cc1nc2scc(C)n2c(=O)c1S(=O)(=O)NCC1CCN(Cc2ccc(Cl)cc2)CC1	-0.81	-1.05
N#Cc1c(NC(=O)Cn2c(=O)sc3ccccc32)sc2c1CCCC2	.	-2.49
O=c1[nH]nc(-c2ccccc2)nc1Cc1ccc2c(c1)OCO2	0.48	.
CN1C(=O)C(O)(CC(=O)c2ccc(Cl)cc2)c2ccccc21 (stereo not drawn)	0.13	-0.21
Cc1ccccc1/C(N)=N/OC(=O)c1ccc(C(C)(C)C)s1	.	-0.97
FC(F)(F)c1cc(-c2ccccc2)no1	1.13	-0.78
CCOC(=O)C1=C(C)NC2=C(C(=O)CC(C)(C)C2)C1c1cc(Br)c(CC)s1 (stereo not drawn)	1.15	-2.74
C=CCn1c(N)c(C(=O)OCC)sc1=S	0.11	-2.75
CCC1CCCCN1CCCNC(=O)Cn1nc(C)n2cccc2c1=O (stereo not drawn)	2.37	-1.69
CC(C)c1nc2c(c3c1[nH]c1ccccc13)C(=O)CC(C)(C)C2	-11.8	0.53
CCOC(=O)C(CC)Sc1ncnc2sc3c(c12)CCCC3 (stereo not drawn)	0.68	0.92
COc1ccc2c(c1)NC(c1ccc(F)cc1)=NC(c1cccs1)=N2	1.82	1.87
Cc1nc2c(c(C)nn2C(C)(C)C)c(C)c1CCC(=O)O	0.77	0.81

Record cards, as listed above. Order of values: HIV TAR-Tat	CDC25B-CDK2 inh
`O=C(COc1ccccc1)Nc1nnc2n1CCS2` reads 0.3	.
`CC(C)C(=O)N1CCc2cc3ccccc3nc21` reads 1.31	-0.02
`O=S(=O)(c1cccc2nsnc12)N1CCN(c2cc(-c3cccc(F)c3)ncn2)CC1` reads 1.56	.

6 entries out of the list, arranged by SMILES length, ascending.
SMILES	HIV TAR-Tat	CDC25B-CDK2 inh
Cc1nc2c(c(C)nn2C(C)(C)C)c(C)c1CCC(=O)O	0.77	0.81
CN1C(C(=O)N2CCCC2)=CC(c2ccc3c(c2)OCO3)=NS1(=O)=O	1.93	-2.07
O=C(c1ccc(F)cc1)c1cn(Cc2ccccc2F)c2cc3c(cc2c1=O)OCO3	-2.62	-1.98
CCN1CCN(c2cc(C)nc3c(-c4ccc(F)cc4)c(C(F)(F)F)nn23)CC1	-0.07	-0.71
CCCCOC(=O)COc1ccc(S(=O)(=O)c2ccc(OCC(=O)OCCCC)cc2)cc1	.	-4.44
Cc1nn(C(C)C(=O)Nc2cccc(F)c2)c(=O)c2nn(-c3ccccc3)c(C)c12 (stereo not drawn)	0.87	.

Later entries.
SMILES	HIV TAR-Tat	CDC25B-CDK2 inh
COc1cc2c(cc1OC)C1CN3CCc4cc(OC)c(OC)cc4C3CN1CC2 (stereo not drawn)	0.85	0.04
O=C(O)c1cn(-c2ccccc2)nc1-c1cccnc1	-0.64	-0.26
NC(=O)c1ncccc1C(=O)O	.	-0.71
O=c1c(NCc2ccccc2Cl)c(-c2ccccc2)c1=O	1.2	.
CC1(C)CC(=O)C=C(Sc2ccc(C#N)cc2[N+](=O)[O-])S1	.	-0.91
Cc1[nH]c2ccccc2c1C(=O)C(=O)N1CCCCC1C (stereo not drawn)	.	-3.09
CCC(Cc1ccccc1)NS(=O)(=O)c1ccc2c(c1)NC(=O)CS2 (stereo not drawn)	2.05	.
c1ccc(OCc2nnc3sc(-c4ccccc4)nn23)cc1	0.32	0.43
CN(C)CCCN(C(=O)CCOc1ccccc1)c1nc2ccc(F)cc2s1	0.54	.
CCn1nnc(NCc2cc(Br)c(OCc3ccc(C)cc3)c(OC)c2)n1	0.31	.
Cc1c(C(=O)OCCOC(C)C)[nH]c2c1C(=O)CC(C)(C)C2	0.24	0.72
COc1cc(Br)c(C2CC(=O)Nc3cc4c(cc32)OCO4)cc1OC (stereo not drawn)	.	-1.99

The closing 4 compounds of the part above lead into the next:
SMILES	HIV TAR-Tat	CDC25B-CDK2 inh
CN(C)CCCN(C(=O)CCOc1ccccc1)c1nc2ccc(F)cc2s1	0.54	.
CCn1nnc(NCc2cc(Br)c(OCc3ccc(C)cc3)c(OC)c2)n1	0.31	.
Cc1c(C(=O)OCCOC(C)C)[nH]c2c1C(=O)CC(C)(C)C2	0.24	0.72
COc1cc(Br)c(C2CC(=O)Nc3cc4c(cc32)OCO4)cc1OC (stereo not drawn)	.	-1.99
N#CC1=C2SCN(c3ccccc3)CN2C(=O)CC1c1cccc(Br)c1 (stereo not drawn)	-3.33	6.86*
COc1ccc(N2C(=O)C3N=NN(Cc4cccc(Br)c4)C3C2=O)cc1 (stereo not drawn)	1.24	0.81
Cc1c(C)c(C)c(S(=O)(=O)Nc2ccc3c(c2)CC(=O)N3)c(C)c1C	0.75	.
CCCc1cc(=O)n2[nH]c(-c3ccc(Cl)cc3)nc2n1	0.42	-0.59
Cc1cc(Nc2ccc(N(C)C)cc2)c2cccc(C)c2n1	22*	-0.51
COC(=O)CNS(=O)(=O)c1ccc2c(c1)oc(=O)n2C	.	-0.49
